Autofluor counter: compound fluorescence in toxin protease inhibitor counterscreen | compound autofluorescence counterscreen, microsphere flow cytometry; hits give high values | fluorescence intensity (no concentration beside the values) | actives 3.1% (n = 360,000) | AID 624483;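 active = at least 3 SD above the mean of all compounds, about 16000 in these data; inconclusive = too few beads counted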;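 also: 100 nL of 1 mM stock went into each well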
Sa ugtP lethal: growth inhibition of ugtP-null S. aureus, primary screen, RN4220 ugtP deletion, OD600. 16 h; some inactives read as strong as hits. growth inhibition, % (test concentration not listed). actives 0.54% (n = 330,000). AID 1259309, 2017;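 active = z-score under -3 and OD600 up to 0.15 on both plates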;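 also: plate controls were untreated wells for no effect and antibiotic for full effect; wells of about 80 µL received 100 nL stock; the first replicate is given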
Mtb hypoxia inh: PubChem AID 1159583. M. tuberculosis hypoxia-regulated fluorescent reporter, fluorescence. fluorescence inhibition, % (no concentration beside the values). actives 0.1% (n = 300,000);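 active = 35 to 45% if threefold the growth effect, above 45% if 1.5-fold the growth effect; inactive = the rest, general growth blockers included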;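 also: wells of about 50 µL received 100 nL stock; 0% = vehicle wells and 100% = reference inhibitor wells; whole bacteria with a GFP reporter of the hypoxia response; strong numbers were not always called active; many hits fall short of the cut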
RN4220 kill: growth inhibition of S. aureus RN4220, primary screen, OD600; AID 1259311, 2017; actives 0.33% (n = 330,000); 16 h; inhibition, % (concentration not given with the values);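 active = z-score of -3 or lower and OD600 up to 0.18 on both plates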;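 also: plate controls were untreated cells for no effect and reference antibiotic for full effect; stock transfer was 100 nL into about 80 µL; one replicate is shown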
PrP UTR inh: inhibition of PrP 5' UTR reporter expression; inhibition, % (concentration not given with the values); AID 488862, 2010; actives 0.35% (n = 340,000); cell-based PrP 5' UTR mRNA reporter, plate reader;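 active = every replicate at 50% or more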;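 also: 0 = median of the neutral control wells; tested in H4 reporter cells; numbers are from one replicate; inactives centre near -14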
BJeLR lethal: MLPCN primary cell-based screen for lethality selective to Ras in HRASV12 cells; BJeLR (HRASV12) viability, CellTiter-Glo ATP luminescence, 48 h; reference of the scale not given here; inhibition, % (no concentration beside the values); actives 0.17% (n = 300,000);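 active = replicate mean above 50%; inconclusive = above 50% but judged a plate artefact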;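 also: 50 nL library stock added to about 25 µL; numbers are from one replicate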
Mtb hypoxia inh growth: also measured in Mtb hypoxia inh; calls as there; growth inhibition, %; measured here: M. tuberculosis growth (absorbance);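 0% = vehicle and 100% = reference antibiotic; read after six days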
* marks the source's active call; other numbers are inactive results; ? = inconclusive; / = no result given.

SMILES	Autofluor counter	Sa ugtP lethal	Mtb hypoxia inh	Mtb hypoxia inh growth	RN4220 kill	PrP UTR inh	BJeLR lethal
Cc1nn(Cc2noc(C(=O)NCCCn3ccnc3)n2)c(C)c1Br	3963	/	/	/	/	6	2
COc1ccc(Cc2nnc(Cl)c3ccccc23)cc1OC	3703	-7	5	-1	5.7	-34	3
Cn1cc(Cl)c(-c2n[nH]c(=S)n2-c2ccccc2)n1	2519	3	12	9	4.9	-20	2
CCCN(CC(=O)Nc1ccccc1C)C(=O)c1ccc(-c2ccccc2)cc1	6019	5	15	-2	0.0	-18	14
COc1ccccc1C(=O)N1CCN(Cc2nc3cc([N+](=O)[O-])ccc3n2C)CC1	4628	1	1	-2	3.0	-7	-9
CCN(Cc1cc(=O)n2cc(Cl)c(C)c(Cl)c2n1)Cc1nc2ccccc2c(=O)[nH]1	4288	-13	-4	-2	5.5	-43	0
CCOC(=O)c1c(SC)nc(SC)c2c1CCC2	?	9	6	8	1.2	-1	1
Clc1ccc(CN2CCN(N=Cc3ccco3)CC2)cc1	/	1	2	5	12	/	/
Cc1ccccc1Nc1nc(N)nc(COC(=O)CC2CC3CCC2C3)n1 (stereo not drawn)	2596	6	3	-4	7.8	6	-8
O=C(CN1C(=O)C2CC=CCC2C1=O)Nc1ccc(F)cc1F (stereo not drawn)	3074	8	-7	-12	2.4	-10	/
CC(C)[C@H]1CC2C3CC=C4C[C@@H](O)CC[C@]4(C)C3CC[C@]2(C)[C@H]1O (stereo partly drawn)	3617	22	-3	-3	1.6	/	/
COc1ccc(OC)c(C(=O)CSc2nc3c(c(=O)n(C)c(=O)n3C)n2C(C)C)c1	5107	1	4	7	4.9	-44	-2
CC(=O)NC(Cc1c[nH]c2ccccc12)C(=O)OCc1cc(C(F)(F)F)cc(C(F)(F)F)c1 (stereo not drawn)	/	-11	4	0	12	/	/
OCCCc1n[nH]c(=S)n1-c1ccccc1	5455	5	6	7	0.0	-27	7
CN1CCN(C(=O)Nc2ccc([N+](=O)[O-])cc2)CC1	4416	-12	0	-9	1.2	-3	-13
COc1cc(-c2ccc(NC(C)=O)c(OC)c2)ccc1NC(C)=O	?	-3	8	-6	3.6	-7	4
CS(=O)(=O)c1ccc(NC(=O)CCCc2nc3ccccc3c(=O)[nH]2)cc1	?	7	-2	-3	3.6	-34	-4
O=C(CCc1ccc(F)c(F)c1)NC1CCCN(Cc2ccc(Cl)cc2)C1 (stereo not drawn)	5601	-4	-3	2	1.6	-23	-10
Cc1ccc(NC(=S)NC2CCN(Cc3ccccc3)CC2)cc1C	4402	9	8	0	0.9	-27	-6
O=C(CSc1ccc(-c2ccco2)nn1)NCc1ccc(Cl)cc1	11049	-5	8	3	11	-11	4
COc1ccc(C=NS(=O)(=O)CCc2ccccc2)c(OC)c1	/	-4	6	4	2.3	/	/
COc1ccc(CN(CC(=O)NC2CCCC2)C(=O)CCC(=O)Nc2cc(C)on2)cc1	3286	6	/	/	-1.0	0	0
CCOC(=O)c1c(C=O)c(C)n(Cc2ccccc2)c1C	3801	4	13	7	4.2	-23	-24
N#C/C(=C/c1ccc(N2CCCC2)c([N+](=O)[O-])c1)c1nc2ccccc2[nH]1	9689	-10	7	10	-1.0	-10	6
O=C(CC(=O)NN=C1CCCCCC1)NCc1cccnc1	3220	1	0	-1	2.0	-24	-18
Cc1nnc(NC(=O)C2CCCO2)s1 (stereo not drawn)	4025	1	-5	-3	0.1	-14	2
O=C(CSCc1ccc(Br)cc1)NCc1ccccn1	4345	9	3	-4	6.8	-67	-5
COc1ccc(S(=O)(=O)Cc2ccc(C(=O)NCCCN3CCc4ccccc4C3)o2)cc1	6405	2	/	/	2.3	-14	2
O=C(NCCCO)/C(=C\c1ccco1)NC(=O)c1ccco1	2867	13	15	9	7.5	-21	-6
Cc1cccc(NC(=O)CCC(=O)N/N=C/c2cc([N+](=O)[O-])ccc2O)c1	2012	/	/	/	/	-13	-3
CCOC(=O)c1sc(NC(=O)CSc2nc(-c3ccco3)cc(C(F)(F)F)n2)c(C(=O)OCC)c1C	4132	3	-1	1	3.6	-23	/
CC(NC(=O)c1ccc2ccccc2n1)c1ccc(S(N)(=O)=O)cc1 (stereo not drawn)	4152	-4	14	1	5.8	-32	-6
COc1cccc(NC(=S)N2CCN(S(=O)(=O)c3ccc(F)cc3)CC2)c1	5580	6	6	12	4.4	-7	/
CC(CN1CCCCC1)OC(=O)COc1ccc(Cl)cc1 (stereo not drawn)	3920	16	7	8	3.7	-20	-1
COc1ccc(Cl)cc1NC(=O)CN(C)C(=O)c1sc2ccccc2c1Cl	3774	-13	6	7	-2.6	-15	/
CCC(C)(C(=O)NC1CCCC1)N(C)C(=O)c1ccccn1 (stereo not drawn)	3255	11	6	3	5.6	0	5
COc1ccc(S(=O)(=O)CCC(=O)NCCc2cccc(C)c2)cc1	7686	3	8	5	1.5	/	2
COc1cc(-n2nnnc2SCC(=O)N2CCN(c3ccc(F)cc3)CC2)c(OC)cc1Cl	2697	-1	/	/	-0.2	-15	3
COc1cc(Cl)ccc1OCc1cc(C(=O)N(C)CCc2c(C)n[nH]c2C)no1	5969	-9	-8	11	-0.4	-28	3
Cc1cc(C(=O)CN2C(=O)C(=O)N(C3CCCC3)C2=O)c(C)n1CCc1ccc(F)cc1	9115	0	-5	4	0.8	-16	/
COc1ccc(N(CC(=O)NC2CC3CCC2C3)S(=O)(=O)c2ccccc2)cc1OC (stereo not drawn)	3143	2	-3	-8	3.8	0	0
CC(O)(c1ccc(Cl)cc1)C(c1ccccc1)c1ccccn1 (stereo not drawn)	3489	79	20	9	-6.4	-3	/
CCOC(=O)C1(C)Oc2ccc(S(=O)(=O)CC)cc2NC1=O (stereo not drawn)	4574	5	9	-4	4.5	-10	-13
CNC(=O)CSc1nnc(-c2ccccc2)n1C	4336	1	0	8	3.7	-26	5
Cc1ccc(NC(=S)NCc2cccn2C)cc1	22735*	-3	2	-3	-2.6	-19	6
COC(=O)[C@@]1(Cc2ccc(OC)cc2)C2c3cc(C(=O)N(C)C)n(CCc4ccc(OC)c(Br)c4)c3CC2CN1C(=O)c1ccccc1 (stereo partly drawn)	/	7	-8	7	-6.8	/	/
CNC(=S)N/N=C/c1c(C)cccc1Cl	4074	/	/	/	/	-23	-1
COc1ccc(S(=O)(=O)Nc2nc3ccccc3nc2Nc2cccc(C(=O)O)c2)cc1	5544	4	-3	4	3.7	6	5
COc1nc(Oc2ccc(C=NO)cc2)nc(N(C)C)n1	/	0	7	7	3.1	/	/
CC[C@]12c3[nH]c4ccc(Cl)cc4c3CCN1C(=O)[C@@H](CC(=O)NCCCN(C)C)C[C@@H]2C(=O)N1CCN(C(=O)C2CC2)CC1	3883	1	-4	7	1.2	-18	/
CCn1c(CCNC(=O)c2ccc(OC)cc2)nnc1SCC(=O)Nc1ccccc1F	3233	-68	16	5	4.9	-10	3
COc1cc(CC(=O)NCC2CCCCC2)cc(OC)c1OC	4051	5	-2	-1	1.8	-16	3
O=C(N/C(=C\c1cccnc1)c1nc2ccccc2[nH]1)c1cccc(Br)c1	2560	-9	-1	2	-2.3	-3	3
CC1CCCCC1NC(=O)NC(=O)COC(=O)c1nccnc1N (stereo not drawn)	3826	3	9	14	3.7	-14	/
CCCc1cc(=O)oc2cc(OCc3cc(OC)c(OC)c(OC)c3)c(Cl)cc12	3386	1	/	/	-1.9	-2	-2
CC(NC(=O)c1cnc2ccccc2n1)c1ccccc1 (stereo not drawn)	4180	-5	13	10	0.7	-15	5
COc1cc(OC)c(C=NNC(N)=S)cc1Br	/	2	26	38	5.4	/	/
CSCC[C@H](NC(=O)OC(C)(C)C)C(=O)N/N=C/c1cccc2cccnc12	?	/	/	/	/	-13	-5
C/C=C/c1ccc(OCC(=O)Nc2cc(Cl)ccc2-n2cncn2)c(OC)c1	6444	-2	-8	3	10	-13	1
Oc1ccc(Br)cc1CNc1cnc2ccccc2c1	4225	-26	-2	-3	0.9	-22	-3
Continued.
SMILES	Autofluor counter	Sa ugtP lethal	Mtb hypoxia inh	Mtb hypoxia inh growth	RN4220 kill	PrP UTR inh	BJeLR lethal
Clc1ccc(-c2cc(COc3ccc4ccccc4c3)no2)cc1	?	-8	1	3	-18	3	9
O=C(c1ccc(O)c(Br)c1)c1cc(Br)ccc1O	3340	84*	2	-6	77	-32	/
CCCCOCCCNC(=O)Cc1ccccc1OC	8829	1	2	1	3.6	-3	-5
CN(CCOc1ccccc1)S(=O)(=O)c1ccccc1C#N	/	9	2	1	6.0	-10	/
O=C(c1ccc(N2CCCS2(=O)=O)cc1)N1CCN(c2ccccc2)CC1	6219	-1	-1	3	1.9	-18	-12
CCS(=O)(=O)N1Cc2ccccc2CC1C(=O)Nc1nc2ccccc2s1 (stereo not drawn)	2742	-11	-11	3	-2.9	-25	4
CCOc1ccc2nc(NCCNC(=O)Nc3ccccc3)c(C#N)cc2c1	9770	2	-5	3	4.6	-19	-12
CCCCCC(=O)Nc1cccc(C2=NOC3(C2)CC(C(N)=O)N(C(=O)c2ccccc2C(=O)c2ccccc2)C3)c1 (stereo not drawn)	/	-10	0	7	6.7	/	/
COc1cc(OC)cc(C(=O)NNC(=O)Cc2ccc(OC)c(S(=O)(=O)N3CCOCC3)c2)c1	2658	-2	12	1	5.7	-17	-1
CC(C)(C)c1cc(/C=C2\NC(=O)NC2=O)cc(C(C)(C)C)c1O	3780	10	-1	-2	3.1	-17	3
CCOc1cccc2sc(NC(=O)CCS(=O)(=O)c3ccccc3)nc12	4263	-6	2	3	-1.2	5	16
COc1ccccc1CN(C)CC(=O)Nc1cccc(S(=O)(=O)N2CCCC2)c1	3710	-2	-7	5	-0.9	-19	/
Oc1ccc(Br)cc1/C=N/Nc1ccccn1	2710	/	/	/	/	21	18
Cc1cc(NC(=O)CSc2ncnc3sccc23)no1	3167	3	13	2	4.6	-6	0
